Bioassay records from PubChem BioAssay.
NS1 inh – qHTS Assay for Inhibitors of Influenza NS1 Protein Function; AID 2326, 2010; 270,000 compounds, 0.4% hits; Potency, µM (titrated, usually from 46.1 µM), for the others: at the top dose activity, positive = more growth; S. cerevisiae slowed by influenza A NS1, growth recovery by OD600; further: actives are rising curves; nearly all actives have a fitted effect of over 50% in size
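Compounds were scored for reversing the slow growth caused by influenza A NS1 in S. cerevisiae, measured by optical density at 600 nm. Assay medium contained 2% galactose at pH 6.0; NS1-free yeast of the same strain were the positive control.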
MARV entry inh – qHTS for inhibitors of binding or entry into cells for Marburg Virus; Potency, µM (titrated, usually from 37.8 µM), for the others: at the top dose activity change, negative = inhibition, actives largely listed as inhibitors; 300,000 compounds, 1.8% hits; AID 540276, 2011; Marburg virus pseudotyped entry inhibition, cell reporter; control for the full effect not named in the record; about a third of the inactives were read at about 46 µM; active = well fitted inhibition curve with a large enough effect; inconclusive = small, poorly fitted or top-dose-only effect, or effect the other way; inactive = flat fitted curve, though single readings scatter; tested in HEK293 cells; about a fifth of its hits are not listed in these tables; further: on the % scale 0 is the no-effect control and ±100 the full control effect; luciferase read-out
SARS PLP yeast – qHTS of Yeast-based Assay for SARS-CoV PLP. S. cerevisiae expressing SARS-CoV PLpro, growth rescue; control for the full effect not named in the record. Potency, µM (series often up to 32.9 µM), for inactives: top-dose activity, positive = growth rescue. 330,000 compounds, 0.19% hits. AID 485353, 2010; further: 0% is about no effect; nearly all actives have a fitted effect of over 55% in size; growth read by luminescence after 48 h
Lassa entry inh – qHTS for Inhibitors of binding or entry into cells for Lassa Virus; Lassa virus pseudotype entry inhibition, cell reporter; control for the full effect not named in the record; Potency, µM (top dose mostly 37.9 µM), for the others: at the highest dose activity change, negative = inhibition, most hits filed as inhibitors; 300,000 compounds, 1.2% hits; AID 540256, 2011; active means well fitted inhibition curve with a large enough effect; inconclusive means small, poorly fitted or top-dose-only effect, or effect the other way; inactive means flat fitted curve, though single readings scatter; tested in HEK293 cells; further: on the % scale 0 is the no-effect control and ±100 the full control effect; nearly all actives have a fitted effect of over 50% in size; luciferase read-out
RE007 growth inh – qHTS Assay for Inhibitors of the HIV-1 protein Vpr; Potency, µM (doses to about 92.2 µM), for the others: at the top dose activity change, negative = less growth; S. pombe RE007 Vpr strain, BacTiter-Glo ATP luminescence, 24 h; control for the full effect not named in the record; 360,000 compounds, 0.21% hits; active = well fitted falling curve with a large enough effect; inconclusive = small, poorly fitted or top-dose-only effect; inactive = no such curve, though single readings can be large or run the other way;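 further: on the % scale 0 is the no-effect control and ±100 the full control effect; nearly all actives have a fitted effect of over 50% in size; the assay follows cell death caused by Vpr and the record does not say whether a fall means rescue or toxicity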
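Fission yeast RE007 carrying one integrated HIV-1 vpr copy, seeded at OD 0.01 in PMG+AL medium with 23 nL pinned compound. Grown 24 h at 30 degrees; viability read by BacTiter-Glo luminescence after 5 min.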
Cruzain inh noDet – qHTS Assay for Promiscuous and Specific Inhibitors of Cruzain (without detergent); Potency, µM, without a hit: max response, negative = inhibition, most hits filed as inhibitors; Cruzipain (Trypanosoma cruzi), P25779; AID 1476, 2009; 200,000 compounds, 2.3% hits; purified cruzain, Z-FR-AMC fluorescence, no detergent; active means well fitted curve in the direction sought with a large enough effect; inconclusive means small, poorly fitted or top-dose-only effect, or another doubt; inactive means no such curve, though single readings can be large; an effect the other way counts as inactive or inconclusive;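 further: plate controls were enzyme without inhibitor for no effect and buffer without enzyme for full effect; nearly all actives have a fitted effect of over 40% in size; top concentration of the series not given in the record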
Target sequence (P25779 123-467 limits assumed): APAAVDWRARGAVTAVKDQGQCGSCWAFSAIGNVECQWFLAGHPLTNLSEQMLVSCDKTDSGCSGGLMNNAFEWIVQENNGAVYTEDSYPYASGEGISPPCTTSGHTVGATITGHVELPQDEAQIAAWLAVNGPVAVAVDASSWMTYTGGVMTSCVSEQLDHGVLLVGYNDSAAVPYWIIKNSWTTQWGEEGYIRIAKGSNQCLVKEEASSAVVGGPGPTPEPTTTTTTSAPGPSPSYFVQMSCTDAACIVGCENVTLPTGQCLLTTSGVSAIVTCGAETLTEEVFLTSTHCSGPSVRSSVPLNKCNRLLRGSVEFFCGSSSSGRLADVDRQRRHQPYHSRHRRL
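Purified cruzain at 1.5 nM, pre-incubated 15 min with compound at room temperature in 100 mM sodium acetate pH 5.5, 5 mM DTT, 0.00005% Triton X-100. Reaction started with 2 uM Z-FR-AMC; AMC fluorescence increase over 60 s gives rate.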
StopGo reporter – High Throughput Screening for Foot and Mouth Disease Virus Antivirals. human cells with a luciferase reporter of 2A StopGo recoding; control for the full effect not named in the record. Potency, µM (highest dose often 57.9 µM), without a hit: at the top dose signal change, negative = less light. 410,000 compounds, 1.2% hits; active = well fitted falling curve with a large enough effect; inconclusive = small, poorly fitted or top-dose-only effect; inactive = no such curve, though single readings can be large or run the other way; tested in HEK293T cells; further: on the % scale 0 is the no-effect control and ±100 the full control effect; nearly all actives have a fitted effect of over 45% in size; luciferase light after 4 h
Cruzain Triton – qHTS Assay for Promiscuous and Specific Inhibitors of Cruzain (with detergent). purified cruzain, Z-FR-AMC fluorescence, 0.01% Triton. Potency, µM, without a hit: max response, negative = inhibition, hits mostly inhibitors. 200,000 compounds, 0.43% hits. AID 1478, 2009; active means well fitted curve in the direction sought with a large enough effect; inconclusive means small, poorly fitted or top-dose-only effect, or another doubt; inactive means no such curve, though single readings can be large; an effect the other way counts as inactive or inconclusive;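 further: plate controls were neutral wells for no effect and buffer without enzyme for full effect; nearly all actives have a fitted effect of over 40% in size; top concentration of the series not given in the record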
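Enzyme 1.5 nM, Z-FR-AMC 2 uM, NaOAc 100 mM pH 5.5, DTT 5 mM, Triton X-100 0.01%; 15 min RT compound preincubation; kinetic ex360/em450, 60 s delta.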
* marks the source's active call; other numbers are inactive results; ? = inconclusive; . = not tested or not shown; & = joins results of further samples; [ ] = dose if it differs, or a comment. Unless noted, the call rests on the fitted dose curve; in most records, active means well fitted rising curve with a large enough effect; inconclusive means small, poorly fitted or top-dose-only effect; inactive means no such curve, though single readings can be large or run the other way. Potency means the concentration at half of the fitted maximal effect.

Compound	StopGo reporter	Cruzain inh noDet	RE007 growth inh	Cruzain Triton	NS1 inh	SARS PLP yeast	MARV entry inh	Lassa entry inh
O=C(CSc1nc(=O)n(CCCN2CCOCC2)c2c1CCCC2)Nc1ccc(F)cc1F	10%	.	-24%	.	.	5%	?	-9%
CCO[C@H]1OC(C(=O)N2CCN(Cc3ccc4c(c3)OCO4)CC2)=C[C@@H](c2csc3ccccc23)[C@@H]1CCCO	0%	.	-1%	.	-11%	1%	.	.
O=C(OCc1cncs1)c1cccs1	-4%	.	-22%	.	-2%	-1%	10%[46.1 µM]	19%[46.1 µM]
CC1(C)CC2(CCO1)C(Nc1ccccc1)=NC(=S)N2CC(N)=O (stereo unspecified)	-9%	.	-4%	.	-5%	1%	.	.
CC(C)(C)C(=O)Nc1sc2c(c1C(=O)Nc1ccccn1)CCCC2	11%	.	2%	.	5%	1%	3%[46.1 µM]	6%
CCc1ccc(CN(C(=O)c2cc(=O)c3ccc(C)cc3o2)C2CCS(=O)(=O)C2)cc1 (stereo unspecified)	-10%	35%	.	-6.4%	.	.	-14%[46.1 µM]	-9%[46.1 µM]
CCn1cc(C(=O)NCc2ccc(C)o2)c2cc(OC)c(OC)cc2c1=O	-20%	?	-5%	0.5%	-6%	-1%	20%	7%
CCc1c(C)c2ccc(OC3CCCCC3=O)cc2oc1=O (stereo unspecified)	66%[activator]	.	22%	.	-2%	1%	.	.
O=C(C[n+]1ccccc1)Nc1cc(C(F)(F)F)ccc1Cl	-28%	-15%	5%	-0.2%	20%	5%	6%	5%
CCCC(=O)N1CCN(c2ccc(NC(=O)c3ccco3)cc2)CC1	29%	-2%	-4%	1.0%	-12%	-10%	25%	28%
COC(=O)c1cc(CNC(=O)c2ccc(O)c(Cl)c2)ccc1OC	-13%	-1%	-2%	-2.5%	-1%	-19%	2%	?
O=C(COC(=O)COc1ccccc1)Nc1ccc2c(c1)OCCO2	-3%	.	2%	.	.	-7%	-6%[46.1 µM]	-6%[46.1 µM]
CN(c1ccc(C(=O)N2CCOCC2)cc1[N+](=O)[O-])C1CCCCC1	52%[activator]	5%	5%	0.8%	?	0%	5%	39%[14.3 µM]
O=C(NCCc1nccs1)C1CCC(=O)N(Cc2cccc(C(F)(F)F)c2)C1 (stereo unspecified)	-14%	.	7%	.	2%	3%	17%	17%
Cc1cc(C)c2c(=O)cc(C(=O)Nc3ccc(C)c(Cl)c3)oc2c1	1%	-14%	.	1.1%	.	.	8%[46.1 µM]	?
Fc1ccccc1CSc1ncn[nH]1	-7%	9%	2%	2.1%	9%	9%	?	12%
CCCCC(=O)Nc1cc(-c2cn3cccnc3n2)ccc1C	-5%	5%	.	3.0%	.	.	.	1%[46.1 µM]
Cc1cc(C(=O)Oc2ccccc2C(=O)O)c(C)o1	-2%	-8%	-3%	1.7%	3%	2%	4%	5%
O=C(O)c1ccnc(Cl)c1	?	-1%	-6%	1.5%	7%	12%	?	-1%
COC(=O)CCCCCN1C(=O)NC(c2ccccc2)C(C(=O)OCc2ccccc2)=C1C (stereo unspecified)	28µM*	-13%&-10%	-1%	-6.3%&3.4%	-19%	-7%	-29%	?
CCOc1cccc(C(=O)Nc2cc(-c3nn4c(C)nnc4s3)ccc2C)c1	-14%	10%	18%	0.0%	-33%	4%	7%	-1%
CC(C)CCN1CCN(Cc2ccc3nsnc3c2)CC1CCO (stereo unspecified)	-8%	.	-6%	.	0%	0%	12%[46.1 µM]	?
CCC(C)(c1nnnn1-c1c(C)cccc1C)N(N=O)c1cccc(C(F)(F)F)c1 (stereo unspecified)	3%	11%	10%	-6.0%	5%	-28%	?	?
COc1ccccc1-c1nc(C#N)c(NCc2ccc(F)cc2)o1	7%	5%	20%	-8.2%	-135%	-14%	0%	-1%
CN(Cc1ccccc1)C(=O)CCC1CCN(S(=O)(=O)N(C)C)CC1	-6%	.	0%	.	17%	6%	-6%[46.1 µM]	-13%[46.1 µM]
CC1NCCC2(O)CCCCC12 (stereo unspecified)	-18%	.	20%	.	1%	-1%	.	.
CCc1nnc(NC(=O)C2CCCN(S(=O)(=O)c3ccccc3)C2)s1 (stereo unspecified)	.	2%	0%	-0.8%	1%	0%	2%	-14%
CC(OC(=O)C1CC1)C(=O)Nc1cc(Cl)cc(Cl)c1 (stereo unspecified)	?	.	21%	.	.	-48%	-19%[46.1 µM]	-24%[46.1 µM]
CC(=O)Nc1ccc(SCC(=O)Nc2ccc(Cl)cn2)cc1	12%	.	5%	.	.	-5%	4%	?
COc1cc(NC(=S)Nc2ccc(S(=O)(=O)N3CCOCC3)cc2)cc(OC)c1OC	.	-1%	-8%	0.8%	16%	1%	6%	0%
CN(C)CCNC(=O)c1cccc2[nH]c(-c3ccncc3)nc12	3%	.	-8%	.	.	.	?	?
Cc1ccc(-c2nnc(SCC(=O)N3CCCC3)o2)cc1C	3%	-6%	-3%	1.3%	-62%	-4%	?	?
Cc1cc(C)n(CC(=O)Nc2ccc(F)c(F)c2)c(=O)c1C#N	-6%	7%	.	-1.2%	.	.	.	12%[46.1 µM]
CCN1CCN(C(=O)CCc2nnc(CCCCc3ccccc3)o2)[C@@H](C)C1=O	7%	.	-6%	.	3%	1%	2%[46.1 µM]	2%
CCSc1nc2ccccc2c(=O)n1-c1c(C)n(C)n(-c2ccccc2)c1=O	-4%	.	-3%	.	.	0%	-2%[46.1 µM]	.
COC(=O)CSc1nc(-c2ccc(F)cc2)cc(C(F)(F)F)n1	9%&-13%	-15%&-18%	4%	-3.1%&-7.2%	13%	-1%	?	18%[46.1 µM]
O=C(OCc1nc2ccccc2s1)c1cccc(N2C(=O)CCC2=O)c1	15%	.	13%	.	.	2%	4%[46.1 µM]	8%
CCn1c(C)[n+](CCOCC[n+]2c(C)n(CC)c3cc(Cl)c(Cl)cc32)c2cc(Cl)c(Cl)cc21	.	2%	7%	0.8%	-1%	-8%	20%	-24%
Cc1ccc(NS(=O)(=O)c2ccc3[nH]c(=O)[nH]c3c2)c(C)c1	-4%	.	9%	.	-3%	0%	?	-3%[46.1 µM]
C[C@]12CC[C@H]3[C@@H](CCC4=CC(=O)CC[C@@H]43)[C@@H]1CC[C@@H]2O	0%	-10%	11%	-2.6%	.	-2%	.	.
Cc1cc(=O)oc2c3c(ccc12)OCN(Cc1ccc(Cl)cc1)C3	5%	-17%	.	?	.	.	?	-22%[46.1 µM]
Cc1cc(C)cc(OCC(=O)NNC(=O)CCC(=O)NCc2ccccc2)c1	0%	9%	5%	-2.9%	2%	-3%	21%	-2%
O=c1[nH]c(-c2ccccc2O)nc2c1CCCC2	-12%	?	-18%	2.1%	-45%	0%	3%	5%
CCCN1CCc2nc(N3CCN(c4ncccn4)CC3)ncc2C1	0%	-11%	.	-1.0%	.	.	.	8%[46.1 µM]
CCOc1ccc(/C=N/Nc2nc(N3CCCC3)nc(N3CCCC3)n2)cc1OC	.	4%	-13%	-7.4%	3%	-1%	?	?
CCc1ccc(N2CC(C)Cn3c2nc2c3c(=O)[nH]c(=O)n2C)cc1 (stereo unspecified)	-22%	.	-6%	.	7%	1%	-10%[46.1 µM]	?
COC(=O)c1cc(S(=O)(=O)N2CCN(c3ccc(F)cc3)CC2)c[nH]1	?	.	2%	.	6%	18%	.	.
CC1=C(c2ccc(C)cc2)S(=O)(=O)NC1=NCCCN1CCN(c2cc(C)ccc2C)CC1	-26%	17%	.	-3.3%	.	.	?	?
Cc1ccc(S(=O)(=O)N2CCN(C(=O)c3ccc(Cl)nc3)CC2)cc1	-11%	.	41%	.	-1%	5%	-1%[46.1 µM]	-14%
CC(=O)Nc1ccc(Sc2ncnc3scc(-c4ccccc4)c23)cc1	0%	?	7%	-10%	-10%	-91%	-28%	-18%
COc1cccc(C2C(C#N)=C(N)SC(c3ccccc3)C2[N+](=O)[O-])c1 (stereo unspecified)	-25%	.	12%	.	?	0%	.	.
N#Cc1ccc(NC(=O)CCc2nc3ccccc3s2)cc1	3%	-15%	-3%	-1.8%	-2%	-5%	1%	-2%
Cc1ccc(-n2nc3c(N4CCC(C(=O)NCCC(C)C)CC4)nnc(C)c3c2C)cc1	-12%	11%	.	-0.4%	.	.	.	15%[46.1 µM]
O=C(O)c1ccc(N/N=C/c2cc3cc4c(cc3nc2Cl)OCCO4)cc1	-63%	.	0%	.	-3%	1%	.	.
O=C(O)CSCc1ccc(C(=O)O)o1	-9%	-12%	3%[3.69 µM]	3.9%	4%	11%[6.58 µM]	0%	3%
Cn1c(N)c(N=Nc2ccc(S(N)(=O)=O)cc2)c(=O)n(C)c1=O	-4%	2%	.	-1.8%	-7%&6%	0%	.	.
CCOC(=O)C1CCCN(C(=O)c2ccccc2NC(C)=O)C1 (stereo unspecified)	-1%	-16%	5%	0.4%	1%	-4%	-26%	5%
CSCC[C@H](NC(=O)N1CCn2c1nc1ccccc12)C(=O)NCc1ccc(F)cc1	-5%	.	-10%	.	-9%	2%	.	.
C1=CC2CC1CC2CNCc1ccco1 (stereo unspecified)	-7%	1%	-8%	3.0%	-4%	1%	?	-16%
CN(CC(=O)Nc1c(Cl)cccc1Cl)C(=O)c1ccccc1-c1nc2ccccc2s1	-26%	.	13%	.	.	0%	0%	-11%
